# D2 PAM – potentiates the human D2 dopamine receptor allosterically. P14416. DiscoveRx D2 beta-arrestin cells, luminescence, 90 min; 100% = 57 uM dopamine signal. potentiation, % (no concentration beside the values). hit rate 0.23% among 360,000. AID 624464; active = potentiation of 50% or more; inconclusive = 30% to 50%; inactive = 30% or less;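 further: compound concentration not given in the record; tested on top of an EC20 dose of dopamine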
# Target sequence (P14416 whole entry, looked up): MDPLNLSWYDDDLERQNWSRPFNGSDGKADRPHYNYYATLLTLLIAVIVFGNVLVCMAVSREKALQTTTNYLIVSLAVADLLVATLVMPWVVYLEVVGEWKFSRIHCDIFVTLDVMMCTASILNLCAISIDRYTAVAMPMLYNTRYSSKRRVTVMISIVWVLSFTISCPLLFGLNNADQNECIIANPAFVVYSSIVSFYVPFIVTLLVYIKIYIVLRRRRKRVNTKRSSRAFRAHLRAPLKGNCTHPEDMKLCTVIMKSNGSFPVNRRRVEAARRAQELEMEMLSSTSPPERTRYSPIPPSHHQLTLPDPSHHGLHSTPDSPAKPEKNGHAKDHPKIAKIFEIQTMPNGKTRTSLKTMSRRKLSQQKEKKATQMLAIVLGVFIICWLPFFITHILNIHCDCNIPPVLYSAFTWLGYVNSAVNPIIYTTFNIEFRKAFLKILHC
#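 PathHunter beta-arrestin assay in DiscoveRx D2 cells. Compounds were added with an EC20 of dopamine (50 nM final) for 90 min at 37 deg C. Luminescence was read 1 h after detection reagent, with 57 uM dopamine as the EC100 control.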
# D2 agonist – activates the human D2 dopamine receptor; P14416; AID 624465; activation, % (no concentration beside the values); DiscoveRx PathHunter D2 beta-arrestin, luminescence, 90 min; 100% = 57 uM dopamine signal; hit rate 0.084% among 360,000; in the data active = activation above about 40%; inconclusive = about 15% to 40%; inactive = below about 15%; further: compound concentration not given in the record; the text of the record calls up to 30% inactive
#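 DiscoveRx PathHunter D2 beta-arrestin cells (2,100/well) attached overnight, then compound-stimulated 90 min at 37 C in HBSS/10 mM HEPES/0.1% Tween-20 buffer; beta-galactosidase complementation read by luminescence after 1 h at ambient temperature. Dopamine 57 uM final (EC100) as control.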
# Sfp inh – Sfp phosphopantetheinyl transferase inhibition; Q9F4F7; AID 1490; Biochemical Sfp PPTase activity, qHTS; hit rate 3.5% among 310,000; Potency, µM, inactives show max response, negative = inhibition, most hits filed as inhibitors; active means well fitted inhibition curve with a large enough effect; inconclusive means small, poorly fitted or top-dose-only effect, or another doubt; inactive means no such curve, though single readings can be large or run the other way;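 further: the enzyme is Sfp with the accession as filed and its product quenches rhodamine fluorescence; potency means the concentration at half of the fitted maximal effect; 0% = enzyme reaction without inhibitor and -100% = no enzyme wells; top concentration of the series not given in the record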
#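 Reaction rates are the 30-min fluorescence difference (ex 525, em 598 nm) in wells containing 15 nM Sfp, 5 uM rhodamine-CoA and 12.5 uM BHQ-2-YbbR at pH 7.6 with 10 mM MgCl2.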
# CtBP-E1A blk – inhibitors of CtBP/E1A interaction | AlphaScreen GST-E1A/His-CtBP binding, 1536-well; hits give low values; control for the full effect not named in the record | activity change, % (concentration not given with the values) | hit rate 0.49% among 340,000; in the data active means activity change below about -65%; inconclusive means about -30% to -65%; inactive means above about -30%; further: on the % scale 0 is the no-effect control and ±100 the full control effect
#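 Protein mix (5X: 125 nM each GST-E1A, His-CtBP) was incubated with pinned compound 2 h at 37 deg C in dark, in 50 mM Tris pH 8.0 buffer with 300 mM NaCl. Glutathione donor and nickel acceptor beads followed; AlphaScreen signal read after 1 h.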
# PINK1 expr mod – changes PINK1 expression; PINK1 immunofluorescence, high-content cytometry, 24 h; Potency, µM (doses to about 76.6 µM), inactives show top-dose activation (PINK1 increase), most hits filed as activators; hit rate 0.2% among 410,000; AID 624263; active = well fitted activation curve with a large enough effect; inconclusive = small, poorly fitted or top-dose-only effect; inactive = flat fitted curve, though single readings scatter; cell line not stated here;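 further: potency means the concentration at half of the fitted maximal effect; % of control where 0% means no effect; nearly all actives have a fitted effect of over 65% in size; a mitochondrial uncoupler was the plate control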
#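 Readout is PINK1 immunofluorescence, quantified alongside mitochondrial, cell and nuclear markers by laser-scanning microplate cytometry. Cells from a stable line were exposed to compound titrations (5 concentrations) for 24 hours, with CCCP controls.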
# TRPV1 potentiator – potentiators of human vanilloid receptor 1 (TRPV1); Q8NER1; TRPV1-expressing cells, Fluo-8 calcium influx, capsaicin EC20 potentiation; host cell line not named in the record; control for the full effect not named in the record; potentiation, % at 8.33 µM; hit rate 0.02% among 320,000; active means potentiation above 80%; inconclusive means 30% to 80%; inactive means below 30%; further: 0% is about no effect
#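 Fluo-8 calcium influx in TRPV1-expressing cells, kinetic read (ex 480/em 520 nm). Compound added and read 3 min for agonist activity, followed by capsaicin at EC20 final and 2 min further read for enhancement.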
# Six1-Eya2 blk – Six1/Eya2 interaction inhibition; Q15475+O00167; AlphaScreen GST-Six1/His-Eya2 binding, biochemical; hits give low values; control for the full effect not named in the record; activity change, % (concentration not given with the values); hit rate 0.56% among 360,000; in the data active = activity change below about -65%; inconclusive = about -30% to -65%; inactive = above about -30%; further: on the % scale 0 is the no-effect control and ±100 the full control effect
#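 AlphaScreen with GST-Six1 and His-Eya2 (5X mix: 250 nM and 500 nM), glutathione donor and nickel acceptor beads; buffer 50 mM Tris pH 8.0, 300 mM NaCl, 1 mM TCEP; 1 h at 37 C in the dark.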
# The depositor's hits bear a star; ? = inconclusive; / = no result given; & = joins results of further samples; [ ] = another dose, or the depositor's remark.
SMILES,D2 PAM,D2 agonist,Sfp inh,CtBP-E1A blk,PINK1 expr mod,TRPV1 potentiator,Six1-Eya2 blk
Cc1ccc(N2CCN(S(=O)(=O)c3ccc4c(c3)oc(=O)n4C)CC2C)cc1 (stereo not given),-3,-1.1,9%,1,1.5%,13,-5
CCCNC(=O)C1(C)CCCN(C(=O)C(c2ccccc2)c2ccccc2)C1 (stereo not given),-1,0.9,/,2,1.1%,/,7
CCn1c(=O)n(CC(=O)N2CCN(c3ccccc3F)CC2)c(=O)c2ccccc21,-6,-1.6,-3%,3,0.1%,13,-2
COc1cc(/C=C2\SC(=S)N(N(C)c3ccccc3)C2=O)ccc1O,-6,-4.8,-4%,0,1.7%,/,-2
COc1ccc(/C(O)=C2/C(=O)C(=O)N(CCN(C)C)C2c2ccc(OC)c(OC)c2)c(C)c1 (stereo not given),13,-4.6,6%,3,0.3%,2,-1
CCCCCCCCN1C(=O)C(O)=C(C(C)=O)C1c1ccccn1 (stereo not given),-1,-0.9,-1%,5,2.0%,0,-1
Cc1cccc(NC(=S)Nc2ccc3cn[nH]c3c2)c1,-18,-2.7,-12%,11,-2.9%,-8,6
O=C(c1ccccc1)C1CCN(C(=O)Nc2ccccc2)CC1,-17,1.4,9%,0,0.3%,-6,-2
CCN1C(=O)[C@H]2[C@@H](c3ccc(C)cc3)N[C@]3(CCCN(CC4CCCCC4)C3=O)[C@H]2C1=O,5,-8.3,/,0,0.5%,/,3
CCN(CC)C1=C(Cl)C(=O)C(Cl)C12OCCO2 (stereo not given),-7,-1.4,3%,7,-1.6%,9,2
Cc1ccc(N(CC(=O)N2CCCCCC2)S(C)(=O)=O)cc1Cl,-1,4.8,32%[activator],5,-1.0%,-7,6
COc1ccc(S(=O)(=O)N2CCCCCC2)cc1C(=O)N(C)CC(=O)Nc1ccc(Cl)c(Cl)c1,-3,-0.9,/,4,6.0%,14,-2

# Record cards, from the list above.
# `CCn1c(=O)n(CC(=O)N2CCN(c3ccccc3F)CC2)c(=O)c2ccccc21` in the list: D2 PAM = -6; D2 agonist = -1.6; Sfp inh = -3%; CtBP-E1A blk = 3; PINK1 expr mod = 0.1%; TRPV1 potentiator = 13; Six1-Eya2 blk = -2
# `CCN(CC)C1=C(Cl)C(=O)C(Cl)C12OCCO2` (stereo not given) in the list: D2 PAM = -7; D2 agonist = -1.4; Sfp inh = 3%; CtBP-E1A blk = 7; PINK1 expr mod = -1.6%; TRPV1 potentiator = 9; Six1-Eya2 blk = 2

# Additional entries.
SMILES,D2 PAM,D2 agonist,Sfp inh,CtBP-E1A blk,PINK1 expr mod,TRPV1 potentiator,Six1-Eya2 blk
CCOCc1c(C(=O)OCC(=O)Nc2ccccc2C(N)=O)oc2ccccc12,1,-1.4,/,/,-1.1%,-13,32
CCN(CC(=O)NCc1ccc(F)cc1)C(=O)Cc1ccc(OC)cc1,-8,-3.3,9%,2,5.4%,-3,7
CCOc1ccc2nc(NC(NC(=O)CC)(C(=O)OC)C(F)(F)F)sc2c1 (stereo not given),17,-1.9,11%,3,4.6%[38.3 µM],16,0
COc1cc(OC)c(NC(=O)CCc2nc(-c3cccs3)no2)cc1Cl,-19,-0.7,-1%,-2,0.6%,9,-6
CN1C(=O)Cc2cc(S(=O)(=O)Nc3ccc(Cl)cc3)ccc21,-4,-0.2,0%,-22,2.0%,-15,-1
O=C1CC(=O)N(CCNc2ncc(C(F)(F)F)cc2Cl)C(=O)N1,-6,-3.5,4%,4,-0.9%,12,-6
COc1cccc(C(=O)NN2c3ccccc3CCc3ccccc32)c1,4,3.6,-1%,-13,?,5,8
O=C(NCc1ccc2c(c1)OCO2)Nc1ccc2nsnc2c1,-11,0.8,7%,1,0.0%,-1,8
O=C(Nc1cccc(C(=O)O)c1)/C(=C\c1ccccc1Cl)NC(=O)c1ccco1,1,-3.9,17%,-5,2.2%,1,24
O=C(N/N=C/c1ccccn1)c1ccc(N/N=C/c2ccccn2)cc1,-3,-3.2,-15%,8,0.7%,-16,5
CC(=O)c1ccc(NC(=O)c2ccc(-n3cncn3)c([N+](=O)[O-])c2)cc1,6,9.7,0%,2,-0.8%,-20,27
COc1ccccc1NS(=O)(=O)c1c(C)[nH]c(C)c1C(=O)N1CCCC1,-7,-1.7,15%,0,-0.6%,23,5
COC(=O)Cc1ccc(OC2(C)CCN(Cc3ccccc3)C2)cc1 (stereo not given),-13,-3.7,/,-2,2.1%,/,0
CCOC(=O)c1cnc(-n2nc(C)cc2C)nc1NCc1ccc2c(c1)OCO2,2,-0.9,-12%,-1,6.6%,6,-7
COc1ccc(CNC(=O)Cc2cccs2)cc1,?,-0.5,-2%,/,0.1%,0,1
Nc1c(Br)c(=O)[nH]c(=O)n1-c1ccccc1,-6,-6.9,16%,10,-2.2%,-9,5
O=C1CC(NS(=O)(=O)c2ccccc2F)CN1c1ccc2c(c1)OCCO2 (stereo not given),5,0.8,/,4,-0.5%,9,2
N#CC1=C(S)N(c2ccc(F)cc2)C2(CCCCC2)NC1=O,-5,-1.0,20µM*,0,2.6%,12,4
Cc1c(CCOC(=O)C2C3CC4CC(C3)CC2C4)sc[n+]1CC(=O)c1ccc(Br)cc1 (stereo not given),-39&-11,-7.9&-3.2,-10%,-17,-2.9%&-1.9%,-16,-8&-8
Cc1cc(C)nc(SCc2nnc(SCC(=O)O)n2-c2ccccc2)n1,-3,-3.1,17%,4,1.5%,5,2
NS(=O)(=O)c1ccc(N2N=C(c3ccc(Br)cc3)CC2c2ccc(F)cc2)cc1 (stereo not given),-25,-2.2,1%,53,-2.4%,2,36
O=C(NCc1ccccn1)C(=O)C1C(=O)Nc2ccccc21 (stereo not given),-7,-5.0,-20%,-6,-0.2%,-1,-11
c1ccc(Oc2cc(-c3ccccc3)nc(-c3ccccc3)n2)cc1,-1,-2.1,-10%,-3,17%,-4,21
Cc1cccc(-n2c(O)c(C=Nc3cc(O)ccc3C)c3ccccc3c2=O)n1,-9,0.0,18%,16,?,-4,5
O=C(Nc1ccc(N2CCN(Cc3ccccc3)CC2)cc1)c1ccco1,-18,0.1,10%,-13,2.0%,8,-13
O=C(COc1ncnc2sccc12)NC1CCS(=O)(=O)C1 (stereo not given),0,-0.7,14%,2,0.9%,/,7
COc1ccc(Cc2c(-c3ccco3)nc3ccc(Cl)cn23)c(C)c1,-6,-5.2,/,-12,0.6%,/,-3
O=C(CC12CC3CC(CC(C3)C1)C2)NCc1ccco1,-3,-3.5,-3%,1,1.1%,-11,4
[O-]/C(=C(\C(=S)Nc1ccccc1F)[n+]1ccccc1)c1ccc(OC(F)F)cc1,-5,-2.9,?,-2,3.8%,-7,-1
O=C(COc1cccc(Br)c1)NN=C1c2ccccc2-c2ccccc21,-42,-2.8,-29%,5,?,-3,0
Cc1cc(Br)cn2c(Cc3cccc(Cl)c3)c(-c3cccc(Cl)c3)nc12,/,/,/,4,2.4%,/,10
CC(NC(=O)C1CCCN1C(=O)OCc1ccccc1)c1ccccc1 (stereo not given),-4,0.1,-15%,/,-0.1%,5,1
O=C(C(=O)N1CCCCC1)c1c(-c2ccccc2)[nH]c2ccccc12,-3,-0.1,6%,-9,2.0%,-11,0
Cc1ccc(OCCOc2cccc3ccc(C)nc23)c([N+](=O)[O-])c1,-17,0.0,?,0,1.8%,7,-7
CC1(C)CC(=O)C2=C(C1)NC1=C(C(=O)c3ccccc31)C2c1cccnc1 (stereo not given),-17,-6.9,2%,/,1.2%,13,-6
COc1ccccc1NNC(=O)C(O)(c1ccccc1)c1ccccc1,-4,-8.8,-3%,2,-0.6%,0,4
Cc1ccc(N/C=C2\C(=O)C3(C)CCC2C3(C)C)cc1C (stereo not given),-3,2.4,12%,9,3.3%,-15,11
Nc1[nH]c(C(=O)c2ccccc2)c(-c2ccc([N+](=O)[O-])cc2)c1C(=O)NCCc1c[nH]c2ccccc12,/,/,/,?,-0.5%,/,-19
Cc1ccc(C(=O)N/N=C/c2cc(C)n(-c3ccc(Br)cc3)c2C)cc1[N+](=O)[O-],-10,-6.4,11%,-21,-2.4%,/,-22
CCCc1cc(C(=O)N2CCCC(Cc3cccc(Cl)c3)(C(=O)OCC)C2)n(C)n1 (stereo not given),-4,9.1,5%,2,0.3%,-12,2
CCCOc1ccc(N2C(=O)CC(N(Cc3ccco3)C(=O)CCC(=O)O)C2=O)cc1 (stereo not given),-1,2.7,13%,2,-0.4%,/,1
O=C(CN1CCOCC1)N1CCCc2c1c(=O)oc1ccc(OCc3ccccc3)cc21,-8,-2.0,3%,-8,?,-6,-12
CCOC(=O)C1=C(CC)Nc2ccccc2N=C1NC(=O)c1ccc(OC)c(S(=O)(=O)N2CCOCC2)c1,8,3.9,/,/,0.3%,/,4
NCCCCCc1cn([C@@H](CCC(=O)O)C(=O)NCCCCCCCCCCC(=O)N2CCNCC2)nn1,-1,-1.1,/,7,-0.4%,-4,6
Cc1cccc(C(=O)Nc2ccc(O)c3c(=O)cc(-c4ccccc4Cl)oc23)c1,-7,-6.0,3%&2%,/,9.3%,0,1
CCOC(=O)C1=C(COC(=O)c2c(OC)cccc2OC)NC(=O)NC1C (stereo not given),-68,-3.6,/,16,-1.4%,0,9

# An excerpt of these results, field by field.
> Cc1ccc(N/C=C2\C(=O)C3(C)CCC2C3(C)C)cc1C (stereo not given)
  D2 PAM: -3
  D2 agonist: 2.4
  Sfp inh: 12%
  CtBP-E1A blk: 9
  PINK1 expr mod: 3.3%
  TRPV1 potentiator: -15
  Six1-Eya2 blk: 11
> Nc1[nH]c(C(=O)c2ccccc2)c(-c2ccc([N+](=O)[O-])cc2)c1C(=O)NCCc1c[nH]c2ccccc12
  D2 PAM: /
  D2 agonist: /
  Sfp inh: /
  CtBP-E1A blk: ?
  PINK1 expr mod: -0.5%
  TRPV1 potentiator: /
  Six1-Eya2 blk: -19
> Cc1ccc(C(=O)N/N=C/c2cc(C)n(-c3ccc(Br)cc3)c2C)cc1[N+](=O)[O-]
  D2 PAM: -10
  D2 agonist: -6.4
  Sfp inh: 11%
  CtBP-E1A blk: -21
  PINK1 expr mod: -2.4%
  TRPV1 potentiator: /
  Six1-Eya2 blk: -22
> CCCc1cc(C(=O)N2CCCC(Cc3cccc(Cl)c3)(C(=O)OCC)C2)n(C)n1 (stereo not given)
  D2 PAM: -4
  D2 agonist: 9.1
  Sfp inh: 5%
  CtBP-E1A blk: 2
  PINK1 expr mod: 0.3%
  TRPV1 potentiator: -12
  Six1-Eya2 blk: 2

# High-throughput results deposited in PubChem BioAssay by National Center for Advancing Translational Sciences (NCATS).
